# Screening data (PubChem)
# Marburg entry – qHTS for Inhibitors of binding or entry into cells for Marburg Virus; Marburg virus pseudotype entry/binding inhibition, cell-based; control for the full effect not named in the record; many of its hits are not listed in these tables; Potency, µM (highest dose often 49.2 µM), without a hit: at the top dose activity change, negative = inhibition, usual class: inhibitors; 18,000 compounds, 6.5% hits; AID 720532, 2013; active means well fitted inhibition curve with a large enough effect; inconclusive means small, poorly fitted or top-dose-only effect; inactive means no such curve, though single readings can be large or run the other way; tested in HEK293 cells; note: luciferase read-out
# LASV entry inh – qHTS for Inhibitors of binding or entry into cells for Lassa Virus. Lassa virus pseudotyped entry inhibition, cell-based qHTS; control for the full effect not named in the record; many of its hits are not listed in these tables. Potency, µM (doses to about 49.2 µM), for inactives: at the top dose activity change, negative = inhibition, actives largely listed as inhibitors. 18,000 compounds, 4.1% hits; active = well fitted inhibition curve with a large enough effect; inconclusive = small, poorly fitted or top-dose-only effect; inactive = no such curve, though single readings can be large or run the other way; tested in HEK293 cells; note: luciferase read-out
# * = called active by the depositor; u = inconclusive; x = not tested or not shown; & = joins results of further samples; [ ] = dose if it differs, or a comment. % is set by controls: 0 for no effect and ±100 for the full control effect; potency is the fitted concentration of half-maximal effect. A portion of the library, so the mix of outcomes need not match the whole.
SMILES	Marburg entry	LASV entry inh
CSCC[C@H](NC(=O)CNC(=O)CNC(=O)[C@H](CO)NC(=O)[C@H](CCCNC(=N)N)NC(=O)[C@H](CO)NC(=O)[C@H](CC(C)C)NC(=O)[C@H](CC(C)C)NC(=O)CNC(=O)[C@H](C)NC(=O)[C@H](CC(C)C)NC(=O)[C@H](CCCNC(=N)N)NC(=O)[C@H](Cc1cnc[nH]1)NC(=O)[C@@H](NC(=O)[C@@H](N)C(C)C)[C@@H](C)O)C(=O)N[C@H](C(=O)N[C@@H](CCCCN)C(=O)N[C@@H](CO)C(=O)N[C@@H](CC(N)=O)C(=O)N[C@@H](Cc1ccccc1)C(=O)N[C@H](C(=O)N1CCC[C@H]1C(=O)N[C@H](C(=O)N[C@@H](CC(N)=O)C(=O)N[C@H](C(=O)NCC(=O)N[C@@H](CO)C(=O)N[C@@H](CCCCN)C(=O)N[C@@H](C)C(=O)N[C@@H](Cc1ccccc1)C(N)=O)C(C)C)[C@@H](C)O)C(C)C)C(C)C	12.1%	-5.0%
COc1cc(OC)c2c(-c3cccc(-c4ccc(OC)c(F)c4)c3)cc(=O)oc2c1	u	-19.4%
COC(=O)C(O)C(O)(CCC(C)C)C(=O)OC1C(OC)=CC23CCCN2CCc2cc4c(cc2C13)OCO4 (configuration not stated)	0.004µM*	0.126µM*
C[C@@H]1CC[C@H]2C(=O)O[C@@H](COc3ccc(C(C)(C)C)cc3)CN2[C@H]1c1ccc(Br)cc1	u	x
C=CCN(C)C1=NC(c2ccccc2)C(C(=O)OC)=C(C)N1CCOC (configuration not stated)	3.8%[8.59 µM]	-2.3%[8.59 µM]
CC(N)C(=O)OC(C)(C)Cc1ccc(Cl)cc1 (configuration not stated)	-25.4%	-3.0%
CC(Cc1ccc(C(C)(C)C)cc1)CN1CC(C)OC(C)C1 (configuration not stated)	5.3%	-1.3%
CC1(C)CN(Cc2ccccc2)C(=O)[C@@H]1CC(=O)Nc1ccccc1	15.9%	x
Cc1cccc(C(=O)N2[C@@H](C(C)C)COc3cc(Br)ccc3S2(=O)=O)c1	u	u
C=C(C)[C@@H]1CC[C@]2(C(=O)O)CC[C@]3(C)[C@H](CCC4[C@@]5(C)CC[C@H](O)C(C)(C)[C@@H]5CC[C@]43C)[C@@H]12 (some centres not stated)	11.3%	-12.6%
O=C(Nc1ncnc2c1ncn2[C@@H]1O[C@@H]2COP(=O)(O)O[C@H]2[C@H]1O)c1ccccc1	12.5%	0.7%
C[C@@]12CCC=C[C@H]1[C@H](c1ccccc1Br)N(Cc1ccccc1)C2=O	20µM*	-26.3%

# (more compounds)
SMILES	Marburg entry	LASV entry inh
O=c1c(O)c(-c2ccccc2)oc2cccc(O)c12	5.0%	-20.4%
O=C(Nc1ccc(C(=O)N2CCCCC2)cc1)C1CC1	4.2%	18.0%
C=CC(C1=CC(=O)C=CC1=O)c1ccccc1 (configuration not stated)	39.7%[activator]	45.1%[activator]
COc1cccc(CN2CCC3(CCC(CNC(=O)c4ccccc4)O3)CC2)c1 (configuration not stated)	15.9%	12.4%
CN1Cc2c(C(=O)OC(C)(C)C)ncn2-c2ccsc2C1=O	0.1%	0.5%
CC(Oc1ccccc1)C(=O)NCC1Cc2cc(F)cc(-c3ccccn3)c2O1 (configuration not stated)	-8.4%	-4.7%
CC(C)CCCC(C)CCCC(C)CCCC(C)C(=O)O (configuration not stated)	6.1%	0.0%
CC(C)NCC(O)c1ccc(NS(C)(=O)=O)cc1 (configuration not stated)	7.5%&7.3%	7.3%&-3.0%
N[C@H](Cc1cnc[nH]1)C(=O)O	-13.1%&6.1%	-1.3%&0.1%
COc1ccc2oc(-c3ccc(O)cc3)cc(=O)c2c1	-15.4%	u
CC(=O)Oc1c2c(c3c(c1CC=C(C)C)O[C@@]14C(=CC5CC1C(C)(C)OC4(C/C=C(\C)C(=O)O)C5=O)C3=O)OC(C)(CCC=C(C)C)C=C2 (some centres not stated)	3.55µM*	6.31µM*
CC1CC(Cl)CCC1C(=O)OC(C)(C)C (configuration not stated)	14.0%	0.3%

# (next part)
SMILES	Marburg entry	LASV entry inh
CC[C@H](C)[C@H](NC(=O)[C@H](Cc1ccc(O)cc1)NC(=O)[C@@H](NC(=O)[C@H](CCCNC(=N)N)NC(=O)[C@@H](N)CC(=O)O)C(C)C)C(=O)N[C@@H](Cc1cnc[nH]1)C(=O)N1CCC[C@H]1C(=O)N[C@@H](Cc1ccccc1)C(=O)N[C@@H](Cc1cnc[nH]1)C(=O)N[C@@H](CC(C)C)C(=O)N[C@@H](CC(C)C)C(=O)N[C@H](C(=O)N[C@@H](Cc1ccc(O)cc1)C(=O)N[C@@H](CO)C(=O)O)C(C)C	21.1%	-8.7%
O=C(O)CCC[C@H](O)\C=C/C=C/C=C/[C@H](O)C/C=C\CCCCCO	18.6%	0.1%
COC(=O)N1C2CC(=O)O[C@H]3c4cc5c(cc4[C@]1(C)[C@@]3(Br)c1ccccc12)OCO5	7.6%[8.59 µM]	12.9%[8.59 µM]
COc1cc(=O)n2c(c1C(=O)NCc1nonc1C)CCN(Cc1c[nH]c3ccccc13)CC2	0.9%	u
CC1=C2CC3C(CC=C4C[C@@H](O)CC[C@@]43C)[C@@H]2CC[C@]12O[C@@H]1C[C@H](C)CN[C@H]1[C@H]2C (some centres not stated)	u	1.9%&-10.0%
O=C(/C=C/c1ccccc1)c1cccs1	6.2%	-1.1%
C[C@@H]1N[S+](=O)([O-])c2c(F)cccc2O[C@H]1c1ccccc1	9.9%	2.4%
O=C(NCC1CCC2(CCN(Cc3cccc(-c4ccco4)c3)CC2)O1)c1ccccc1 (configuration not stated)	u	-9.9%
CC(=O)OCC1=C(C(=O)O)N2C(=O)C(NC(=O)CSc3ccncc3)[C@@H]2SC1 (some centres not stated)	-12.9%	8.8%
CCN1C(=O)NC(c2cccc(F)c2)C(C(=O)OC)=C1C (configuration not stated)	19.3%[8.59 µM]	7.5%[8.59 µM]
O=c1cc(-c2ccccc2)oc2cc(O)c(O)cc12	31.2%[activator]	-2.2%
CN1CCCCCC1C(=O)NCC1Cc2cc(-c3cnccn3)ccc2O1 (configuration not stated)	-13.9%	-10.3%

# Additional entries:
SMILES	Marburg entry	LASV entry inh
O=c1cc(-c2ccccc2)oc2cccc(O)c12	40.2%&32.7%[activator]	55.9%&53.9%[activator]
CC(=O)[C@H]1CC[C@H]2[C@@H]3C=CC4=CC(=O)CC[C@@]4(C)[C@@H]3CC[C@]12C	36.5%[activator][17.8 µM]	6.2%[17.8 µM]
CCNC(=O)OC1CNC(C#Cc2cc3ncnc(Nc4ccc(OCc5cccc(F)c5)c(Cl)c4)c3s2)C1 (configuration not stated)	u	x
Cc1ccc(C(=O)Nc2cccc(-c3nc(CNC(=O)c4ccc5ccccc5n4)c(C)o3)c2)s1	-19.1%	-25.2%
C=CCC12OC3(OC)CC1[C@H](C)[C@@H](c1ccccc1)C2[C@@]3(C)O (some centres not stated)	0.3%[8.59 µM]	-1.6%[8.59 µM]
COc1cccc([C@@H]2Oc3ccc(Br)cc3C[C@H]2OC(=O)Nc2cc(OC)c(OC)c(OC)c2)c1	3.3%	3.8%
Oc1c(Br)cc(Br)cc1Br	10.2%	5.5%
COc1ccccc1C(=O)N[C@@H]1c2ccccc2C2(CCN(Cc3ccc(C)o3)CC2)[C@H]1O	3.6%	-21.9%
CCN1C[C@]2(COC(=O)c3ccccc3N3C(=O)CC(C)C3=O)CC[C@H](OC)[C@@]34C5C[C@@H]6[C@@H](OC)C[C@@](O)(C5[C@H]6OC)[C@](O)([C@@H](OC)C23)[C@@H]14 (some centres not stated)	8.7%	-15.4%
CCc1nc2cc(C(=O)N3CCC[C@H]3CO)cc(NC(=O)c3ccccc3OC)c2n1C	0.2%	0.1%
CCCCc1ccc2nc(NC(=O)OC)[nH]c2c1	-16.3%[17.8 µM]	-3.4%[17.8 µM]
COC(=O)C1=C(C)N(CC2CC2)C(=O)N[C@H]1c1ccc(Br)cc1	31.9%[activator]	u

# Next section, starting with the last 2 of the part before.
SMILES	Marburg entry	LASV entry inh
CCCCc1ccc2nc(NC(=O)OC)[nH]c2c1	-16.3%[17.8 µM]	-3.4%[17.8 µM]
COC(=O)C1=C(C)N(CC2CC2)C(=O)N[C@H]1c1ccc(Br)cc1	31.9%[activator]	u
CC[C@]12C=CCN3CC[C@@]4(c5ccc(OC)cc5N(C)[C@H]4[C@@](O)(C(=O)OC)[C@@H]1OC(C)=O)C32 (some centres not stated)	11.7%	-3.0%
COc1cccc(CS(=O)(=O)c2nnnn2-c2ccc(F)cc2Br)c1	31.6%[activator]	2.5%
O=c1[nH]cc(F)c(=O)[nH]1	-24.5%&-27.1%&-4.6%	u
CC(C)c1c(C(=O)NC(c2cccnc2)C(F)(F)F)cnn1-c1nccc(-c2cccs2)n1 (configuration not stated)	u	u
COc1ccccc1C1CN(CCNC(=O)c2cnsn2)Cc2ccccc2O1 (configuration not stated)	u	-5.4%
OC1CCN(Cc2ccc3c(c2)CN(Cc2ccc(Oc4ncccn4)cc2)CCO3)CC1	-13.3%	1.3%
O=S1(=O)CC(N2CCCCC2)CN1C1CCCCC1 (configuration not stated)	20.8%	10.8%
CC1CC[C@@]23CCC4(C)[C@@]5(C)CCC6C(C)(C)C(=O)CC[C@@]6(C)C5C=C[C@@]4(OC2=O)C3C1C (some centres not stated)	-20.1%	-13.3%
CC(=O)[C@@]12C3[C@@H](CCN3C(=O)N[C@H]1c1ccccc1)[C@H]2c1ccccc1 (some centres not stated)	20.6%[8.59 µM]	-4.4%[8.59 µM]
COCOCCn1cc(CN2CCS(=O)(=O)N(Cc3ccc(-c4ccc(OC)c(OC)c4)cc3)C(C)C2=O)nn1 (configuration not stated)	60.7%	5.6%
CC(C)C[C@H]1C(=O)N2CCCC2[C@]2(O)O[C@](NC(=O)[C@@H]3C=C4c5cccc6[nH]cc(c56)CC4N(C)C3)(C(C)C)C(=O)N12 (some centres not stated)	u	-2.1%&-13.4%
COc1cc(=O)n2c(c1C(=O)NC(C)c1ccco1)CCN(CC=C(C)C)CC2 (configuration not stated)	1.3%	-3.0%

# Complete entries from above. Screens in order: Marburg entry, LASV entry inh
# Profile of `COCOCCn1cc(CN2CCS(=O)(=O)N(Cc3ccc(-c4ccc(OC)c(OC)c4)cc3)C(C)C2=O)nn1` (configuration not stated) → 60.7%, 5.6%
# Profile of `CC(=O)[C@@]12C3[C@@H](CCN3C(=O)N[C@H]1c1ccccc1)[C@H]2c1ccccc1` (some centres not stated) → 20.6%[8.59 µM], -4.4%[8.59 µM]
# Profile of `CC(C)C[C@H]1C(=O)N2CCCC2[C@]2(O)O[C@](NC(=O)[C@@H]3C=C4c5cccc6[nH]cc(c56)CC4N(C)C3)(C(C)C)C(=O)N12` (some centres not stated) → u, -2.1%&-13.4%
# Profile of `O=c1[nH]cc(F)c(=O)[nH]1` → -24.5%&-27.1%&-4.6%, u

# (listing goes on)
SMILES	Marburg entry	LASV entry inh
CC(C)Oc1ccc2c(=O)c(-c3ccccc3)coc2c1	46.0%&48.8%&113.1%[activator]	55.4%&11.1%&66.1%[activator]
CC(C)=CCC/C(C)=C/CC/C(C)=C/CC/C(C)=C/C(=O)O	-1.4%	0.5%
CSC[C@H]1CN(Cc2ccccc2)C(=O)[C@H]1CC(=O)Nc1ccc(Br)cc1	-21.7%	-26.9%
C[C@]12CCC(=O)C[C@@H]1CC[C@@H]1[C@@H]2CC[C@@]2(C)[C@H]1CC[C@]2(C)O	u	-11.5%
CC(C)C[C@@H](CC(=O)N[C@H](CC(=O)N[C@@H]1CCCC[C@H]1C(=O)N[C@H](CC(=O)N[C@@H](CCC(=O)O)CC(=O)O)Cc1c[nH]c2ccccc12)C(C)C)NC(=O)[C@@H]1CCCC[C@H]1N	1.2%	-1.2%
Cc1oc(-c2ccccc2NS(C)(=O)=O)nc1CN(C)Cc1ccc(Cl)cc1	u	-20.3%
CCCN(CCC)CCc1cccc2c1CC(=O)N2	7.5%	3.0%
Oc1ccc(Cl)c2c1CCC2	19.8%	-0.7%
CCCCCCCCCCCCCCC[C@@H](O)[C@@H](N)COP(=O)(O)O	u	-12.5%
CCCC(O)C(CC)CO (configuration not stated)	8.9%	-12.2%

# (more compounds)
SMILES	Marburg entry	LASV entry inh
C#Cc1cccc2c1c(C(=O)c1ccc(Cn3c(C)nc4cnccc43)c(F)c1)cn2C(=O)N(C)C	u	u
CCOC(=O)N1CCN(Cc2ccc3c(c2)CN(C(=O)c2noc4c2CCCC4)CCO3)CC1	-19.3%	u
C[C@H]1[C@@H](c2ccccc2)Oc2c(Cl)cccc2S(=O)(=O)N1Cc1cccc(F)c1	u	x
COc1ccc(-c2oc3ccccc3c(=O)c2O)cc1OC	7.9%	4.4%
COCOCCn1cc(CN2CCS(=O)(=O)N(Cc3ccc(-c4ccc(OC)nc4)cc3)C(C(C)C)C2=O)nn1 (configuration not stated)	14.3%	x
COC(=O)[C@H]1[C@H]2C[C@@H]3c4[nH]c5ccccc5c4CCN3C[C@H]2C[C@@H](OC(=O)c2cc(OC)c(OC)c(OC)c2)[C@@H]1OC	u	3.55µM*
N[C@@H]1CCN(O)C1=O	7.6%&6.3%	11.7%&-17.7%
COc1ccc(F)c(CN2CCOc3ccc(CN4CCCCC4CO)cc3C2)c1 (configuration not stated)	u	0.7%
Cc1ncc([N+](=O)[O-])n1CC(O)CCl (configuration not stated)	4.6%[17.8 µM]	-9.4%[17.8 µM]
C[C@H]1[C@@H](C(=O)N2CCCC2)CC(=O)C(=NOCc2ccccc2)C[C@H]1c1ccccc1	0.3%[8.59 µM]	x
Cn1cnnc1Sc1ccc(CN2CCOc3ccc(C4=Cc5ccccc5CC4)cc3C2)o1	7.6%	-9.1%
